# Bioassay records as filed in PubChem BioAssay.
# A1 apoptosis 2: blocks A1, raising caspase activity; 24,000 tested, under 10 active; MEF A1-2A-BIM cells, caspase-Glo luminescence, 3 h; percent of clofoctol response, DMSO zero; caspase activation, % (no concentration beside the values); AID 2465; in the data active = caspase activation above about 5.9%; inconclusive = no clear call, values can overlap the other calls; inactive = below about 2.2%;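 also: wells of about 30 µL received 50 nL stock; the first replicate is given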
#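 system = A1-2A-BIM-expressing MEF cells | quantity = 2500 MEF cells/well | dosing = 50 nL compound per well, pinned | schedule = overnight cell settling, then 3 h compound exposure, 37 °C | signal = luminescence from DEVD-luciferin Caspase-Glo reagent, 1:1 in 50 mM HEPES, 1 h RT | read-out = Caspase-3/7 activation, seen as rise in luminescence signal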
# The depositor's hits bear a star; ? = inconclusive. The list is partial (hit frequency here may not be typical).
SMILES,A1 apoptosis 2
C[C@@H]1CCCCO[C@H](CN(C)C)[C@@H](C)CN([C@H](C)CO)C(=O)c2cc(NC(=O)Nc3cccc4ccccc34)ccc2O1,0.6
C[C@@H]1CN([C@H](C)CO)C(=O)c2cc(NS(=O)(=O)c3ccc(F)cc3)ccc2O[C@@H]1CN(C)Cc1ccc(Cl)c(Cl)c1,?
COc1ccc(S(=O)(=O)Nc2ccc3c(c2)C(=O)N([C@@H](C)CO)C[C@H](C)[C@@H](CN(C)S(=O)(=O)c2cccs2)OCCCC[C@@H](C)O3)cc1,0.3
C[C@H](CO)N1C[C@H](C)[C@H](CN(C)Cc2ccccc2)OCCCC[C@H](C)Oc2ccc(NC(=O)C3CCCCC3)cc2C1=O,-0.3
C[C@H](CO)N1C[C@H](C)[C@H](CN(C)Cc2ccc(C(=O)O)cc2)Oc2c(NC(=O)Nc3ccccc3)cccc2C1=O,-0.1
COc1ccc(CN(C)C[C@H]2Oc3c(NS(=O)(=O)c4ccc(OC)cc4)cccc3C(=O)N([C@H](C)CO)C[C@H]2C)cc1,-0.2
Cc1noc(C)c1NC(=O)N(C)C[C@H]1Oc2ccc(NC(=O)CCCN(C)C)cc2C(=O)N([C@@H](C)CO)C[C@H]1C,0.1
C[C@H]1CN([C@@H](C)CO)C(=O)c2cc(NC(=O)C3CCCCC3)ccc2O[C@H]1CN(C)Cc1ccc(-c2ccccc2)cc1,0.5
Cc1ncc(CO)c(/C=N/NC(=O)CCCCCC(=O)O)c1O,0.6
Cc1noc(C)c1S(=O)(=O)N(C)C[C@H]1OCCCC[C@H](C)Oc2ccc(NC(=O)Nc3cccc4ccccc34)cc2C(=O)N([C@@H](C)CO)C[C@@H]1C,0.7
COc1ccc(NC(=O)N(C)C[C@@H]2Oc3ccc(NC(=O)Nc4ccccc4)cc3CC(=O)N([C@@H](C)CO)C[C@H]2C)cc1,-1.0
Cc1noc(C)c1NC(=O)Nc1ccc2c(c1)C(=O)N([C@H](C)CO)C[C@@H](C)[C@@H](CN(C)S(=O)(=O)c1c(C)noc1C)O2,0.3
COc1ccc(S(=O)(=O)Nc2ccc3c(c2)C(=O)N([C@H](C)CO)C[C@@H](C)[C@@H](CN(C)S(=O)(=O)c2ccc(OC)cc2)O3)cc1,0.2
COc1ccc(CN(C)C[C@@H]2Oc3c(NC(=O)NC4CCCCC4)cccc3C(=O)N([C@H](C)CO)C[C@H]2C)cc1,0.8
CNC[C@H]1OCCCC[C@@H](C)Oc2ccc(NC(=O)Nc3c(C)noc3C)cc2C(=O)N([C@@H](C)CO)C[C@H]1C,1.3
C[C@H]1CN([C@@H](C)CO)C(=O)Cc2cc(NC(=O)Nc3cccc4ccccc34)ccc2O[C@@H]1CN(C)Cc1ccc2c(c1)OCO2,0.0
O=C(NC1CC1)C1=C[C@H](c2csc3ccccc23)C[C@H](OCc2ccc(CO)cc2)O1,-0.9
Cc1noc(C)c1NC(=O)N(C)C[C@@H]1Oc2ccc(NC(=O)CCCN(C)C)cc2C(=O)N([C@@H](C)CO)C[C@@H]1C,-0.6
C[C@@H]1CN([C@@H](C)CO)C(=O)c2cccc(NS(=O)(=O)c3cccs3)c2O[C@H]1CN(C)Cc1ccc(Cl)c(Cl)c1,0.0
COc1ccc(C#Cc2ccc3c(c2)[C@]2(C(=O)N3)[C@H](c3ccccc3OCCO)N3[C@H](c4ccccc4)[C@H](c4ccccc4)OC(=O)[C@H]3[C@@H]2C(N)=O)cc1,-0.9
C[C@@H]1CCCCO[C@H](CN(C)C(=O)NC2CCCCC2)[C@H](C)CN([C@@H](C)CO)C(=O)c2cc(NC(=O)CCCN(C)C)ccc2O1,-0.9
C[C@@H]1CN([C@@H](C)CO)C(=O)c2cc(NC(=O)Nc3ccccc3)ccc2O[C@@H](C)CCCCO[C@@H]1CN(C)Cc1ccc(C(=O)O)cc1,1.2
Cc1ccc(S(=O)(=O)N(C)C[C@H]2OCCCC[C@@H](C)Oc3ccc(NS(C)(=O)=O)cc3C(=O)N([C@@H](C)CO)C[C@@H]2C)cc1,-0.3
CC(C)NC(=O)N(C)C[C@@H]1Oc2ccc(NS(=O)(=O)c3cn(C)cn3)cc2CC(=O)N([C@H](C)CO)C[C@@H]1C,-0.4
CC(C)NC(=O)Nc1cccc2c1O[C@@H](CN(C)Cc1ccccc1)[C@@H](C)CN([C@@H](C)CO)C2=O,-0.4
Cc1noc(C)c1NC(=O)N(C)C[C@H]1OCCCC[C@@H](C)Oc2ccc(NC(=O)NC(C)C)cc2C(=O)N([C@H](C)CO)C[C@@H]1C,-1.3
C[C@@H]1CN([C@@H](C)CO)C(=O)c2cc(NS(=O)(=O)c3ccc(Cl)cc3)ccc2O[C@@H](C)CCCCO[C@H]1CN(C)Cc1ccc2c(c1)OCO2,-1.7
C[C@@H]1CN([C@@H](C)CO)C(=O)Cc2cc(NC(=O)Cn3cnnn3)ccc2O[C@H]1CN(C)C,0.3
Cc1ccc(S(=O)(=O)Nc2ccc3c(c2)C(=O)N([C@H](C)CO)C[C@H](C)[C@@H](CN(C)S(=O)(=O)c2cccs2)OCCCC[C@@H](C)O3)cc1,1.3
Cc1ccc(S(=O)(=O)Nc2ccc3c(c2)C(=O)N([C@H](C)CO)C[C@@H](C)[C@@H](CN(C)Cc2ccc(C(=O)O)cc2)OCCCC[C@@H](C)O3)cc1,0.9
Cc1noc(C)c1S(=O)(=O)Nc1ccc2c(c1)C(=O)N([C@@H](C)CO)C[C@H](C)[C@@H](CN(C)S(=O)(=O)c1ccccc1)O2,-0.4
COc1ccc(CN(C)C[C@H]2Oc3c(NS(=O)(=O)c4ccc(Cl)cc4)cccc3C(=O)N([C@H](C)CO)C[C@@H]2C)cc1,-0.1
C[C@@H]1CN([C@H](C)CO)C(=O)Cc2cc(NC(=O)Nc3cccc4ccccc34)ccc2O[C@H]1CN(C)Cc1ccc(C(=O)Nc2ccccc2N)cc1,0.2
CC(C)OC(=O)N(C)C[C@H]1OCc2cn(nn2)CCCC(=O)N([C@H](C)CO)C[C@H]1C,0.3
Cc1noc(C)c1S(=O)(=O)Nc1ccc2c(c1)C(=O)N([C@H](C)CO)C[C@@H](C)[C@H](CN(C)S(=O)(=O)c1c(C)noc1C)OCCCC[C@@H](C)O2,-0.6
CNC[C@@H]1Oc2c(NC(=O)c3nc4ccccc4s3)cccc2C(=O)N([C@@H](C)CO)C[C@H]1C,1.0
Cc1ccc(S(=O)(=O)Nc2ccc3c(c2)CC(=O)N([C@H](C)CO)C[C@H](C)[C@H](CN(C)C(=O)NC2CCCCC2)O3)cc1,-0.6
C[C@H]1CN([C@@H](C)CO)C(=O)Cc2cc(NS(=O)(=O)c3ccccc3)ccc2O[C@H]1CN(C)Cc1ccc(C(=O)O)cc1,-1.5
C[C@@H]1CN([C@H](C)CO)C(=O)c2cc(NS(=O)(=O)c3cn(C)cn3)ccc2O[C@@H]1CN(C)S(=O)(=O)c1cn(C)cn1,0.8
Cc1cccc(CN(C)C[C@H]2OCc3cnnn3CCCC(=O)N([C@H](C)CO)C[C@H]2C)c1,0.7
C[C@H]1CN([C@@H](C)CO)C(=O)Cc2cc(NC(=O)Nc3ccccc3)ccc2O[C@H]1CN(C)S(=O)(=O)c1ccc(F)cc1,-0.4
C[C@H]1CN([C@@H](C)CO)C(=O)Cc2cc(NC(=O)CCCCCC(=O)Nc3ccccc3N)ccc2O[C@H]1CN(C)C,1.2
C[C@H](CO)N1C[C@H](C)[C@@H](CN(C)C)Oc2c(NC(=O)C3CC3)cccc2C1=O,-0.5
C[C@@H]1CN([C@@H](C)CO)C(=O)c2cccc(NS(=O)(=O)c3cccs3)c2O[C@H]1CN(C)C,-0.5
O=C(NO)c1cccc(C(=O)N/N=C/c2cccc(O)c2)c1,-2.2
C[C@@H]1CCCCO[C@@H](CN(C)Cc2ccccc2)[C@H](C)CN([C@@H](C)CO)C(=O)c2cc(NC(=O)Nc3ccc4c(c3)OCO4)ccc2O1,0.3
C[C@@H]1CCCCO[C@@H](CN(C)CC2CC2)[C@@H](C)CN([C@H](C)CO)C(=O)c2cc(NS(=O)(=O)c3cn(C)cn3)ccc2O1,-1.1
C[C@@H]1CN([C@H](C)CO)C(=O)Cc2cc(NC(=O)NC3CCCCC3)ccc2O[C@@H]1CN(C)C(=O)NC1CCCCC1,-0.1
C[C@H]1CN([C@@H](C)CO)C(=O)Cc2cc(NC(=O)CCN3CCOCC3)ccc2O[C@H]1CN(C)Cc1ccc2c(c1)OCO2,-0.3
C[C@@H]1CCCCO[C@@H](CN(C)C(=O)Nc2ccc(F)cc2)[C@H](C)CN([C@H](C)CO)C(=O)c2cc(NC(=O)CCC(F)(F)F)ccc2O1,-0.4

# Continuation:
SMILES,A1 apoptosis 2
C[C@H]1CN([C@@H](C)CO)C(=O)c2cccc(NC(=O)c3nc4ccccc4s3)c2O[C@H]1CN(C)C(=O)Nc1ccc(F)cc1,-0.1
C[C@@H]1CN([C@H](C)CO)C(=O)c2cccc(NC(=O)CCCCCC(=O)Nc3ccccc3N)c2O[C@@H]1CN(C)Cc1ccc2c(c1)OCO2,0.1
COC(=O)[C@H](Cc1ccc(N=[N+]=[N-])cc1)N1CC2=C[C@H]([C@@H](O)Cc3ccccc3)n3c(=O)n(C)c(=O)n3[C@@H]2[C@@H](C2CC2)O1,-0.4
COc1ccc(NC(=O)Nc2cccc3c2O[C@@H](CN(C)S(C)(=O)=O)[C@@H](C)CN([C@@H](C)CO)C3=O)cc1,-0.6
O=C(NCc1ccccc1)C1=C[C@@H](c2csc3ccccc23)C[C@@H](OCc2ccc(CO)cc2)O1,-0.4
COc1ccc(NC(=O)Nc2cccc3c2O[C@@H](CN(C)CC2CCCCC2)[C@H](C)CN([C@H](C)CO)C3=O)cc1,-1.8
C[C@H](CO)N1C[C@H](C)[C@H](CN(C)C(=O)Nc2ccc(C(F)(F)F)cc2)OCCCC[C@H](C)Oc2ccc(NC(=O)Nc3cccc4ccccc34)cc2C1=O,0.8
COc1ccc(NC(=O)Nc2ccc3c(c2)C(=O)N([C@H](C)CO)C[C@H](C)[C@@H](CN(C)S(=O)(=O)c2ccc(Cl)cc2)OCCCC[C@H](C)O3)cc1,2.1
C[C@@H]1CN([C@H](C)CO)C(=O)Cc2cc(NC(=O)Cn3cnnn3)ccc2O[C@@H]1CN(C)S(=O)(=O)c1cccs1,0.9
COc1ccc(COCC23N=C4SCCCN4[C@H](c4ccccc4O2)[C@H]3COC(=O)c2ccccc2)cc1,1.1
C[C@@H]1CCCCO[C@@H](CN(C)Cc2ccc3c(c2)OCO3)[C@@H](C)CN([C@H](C)CO)C(=O)c2cc(NS(=O)(=O)c3cn(C)cn3)ccc2O1,-0.6
COc1ccc(S(=O)(=O)N(C)C[C@@H]2OCCCC[C@@H](C)Oc3ccc(NC(=O)Nc4ccc5c(c4)OCO5)cc3C(=O)N([C@@H](C)CO)C[C@H]2C)cc1,0.0
COc1ccc(CN(C)C[C@@H]2Oc3ccc(NC(=O)Nc4c(C)noc4C)cc3C(=O)N([C@H](C)CO)C[C@H]2C)cc1,0.8
CCCN(C)C[C@H]1OCCCC[C@@H](C)Oc2ccc(NS(=O)(=O)c3cn(C)cn3)cc2C(=O)N([C@H](C)CO)C[C@@H]1C,-0.9
O=C1CC[C@@H]2c3[nH]c4ccc(Br)cc4c3CCN12,-0.1
C[C@H](CO)N1C[C@H](C)[C@H](CN(C)Cc2ccc(C(F)(F)F)cc2)Oc2c(NC(=O)Nc3ccccc3)cccc2C1=O,-1.0
C=CCN1C(=O)[C@@]2(O[C@@H](CCO)[C@H]([Si](C)(C)c3ccc(OC)cc3)[C@H]2C)c2cc(I)ccc21,-2.1
Cc1noc(C)c1S(=O)(=O)N(C)C[C@H]1OCCCC[C@H](C)Oc2ccc(N(C)C)cc2C(=O)N([C@H](C)CO)C[C@@H]1C,-0.2
C[C@H]1CN([C@@H](C)CO)C(=O)Cc2cc(NS(=O)(=O)c3cccs3)ccc2O[C@H]1CN(C)Cc1ccccc1,0.0
COc1ccc(CN(C)C[C@@H]2Oc3ccc(NC(=O)Nc4ccc(OC)cc4)cc3C(=O)N([C@H](C)CO)C[C@H]2C)cc1,-0.4
C[C@@H]1CN([C@@H](C)CO)C(=O)c2cc(NC(=O)Cc3ccccc3)ccc2O[C@@H](C)CCCCO[C@H]1CN(C)S(=O)(=O)c1cccs1,-0.3

# Structural class, the compounds so far containing a thiophene ring, fused or not (9)
SMILES,A1 apoptosis 2
COc1ccc(S(=O)(=O)Nc2ccc3c(c2)C(=O)N([C@@H](C)CO)C[C@H](C)[C@@H](CN(C)S(=O)(=O)c2cccs2)OCCCC[C@@H](C)O3)cc1,0.3
O=C(NC1CC1)C1=C[C@H](c2csc3ccccc23)C[C@H](OCc2ccc(CO)cc2)O1,-0.9
C[C@@H]1CN([C@@H](C)CO)C(=O)c2cccc(NS(=O)(=O)c3cccs3)c2O[C@H]1CN(C)Cc1ccc(Cl)c(Cl)c1,0.0
Cc1ccc(S(=O)(=O)Nc2ccc3c(c2)C(=O)N([C@H](C)CO)C[C@H](C)[C@@H](CN(C)S(=O)(=O)c2cccs2)OCCCC[C@@H](C)O3)cc1,1.3
C[C@@H]1CN([C@@H](C)CO)C(=O)c2cccc(NS(=O)(=O)c3cccs3)c2O[C@H]1CN(C)C,-0.5
O=C(NCc1ccccc1)C1=C[C@@H](c2csc3ccccc23)C[C@@H](OCc2ccc(CO)cc2)O1,-0.4
C[C@@H]1CN([C@H](C)CO)C(=O)Cc2cc(NC(=O)Cn3cnnn3)ccc2O[C@@H]1CN(C)S(=O)(=O)c1cccs1,0.9
C[C@H]1CN([C@@H](C)CO)C(=O)Cc2cc(NS(=O)(=O)c3cccs3)ccc2O[C@H]1CN(C)Cc1ccccc1,0.0
C[C@@H]1CN([C@@H](C)CO)C(=O)c2cc(NC(=O)Cc3ccccc3)ccc2O[C@@H](C)CCCCO[C@H]1CN(C)S(=O)(=O)c1cccs1,-0.3
